Shh pathway inh = blocks Sonic Hedgehog signaling. inhibition, % (test concentration not listed). Shh-LIGHT2 Gli-luciferase reporter, 30 h. AID 2313. hit rate 2.1% among 22,000;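 active = replicate mean of 65% or more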;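 note: pathway switched on by Shh-conditioned medium diluted 1 in 25 in low serum; 100 nL library stock added to about 40 µL; 0% = median of neutral wells and 100% = positive control level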
PD-1 reverse act = reversal of PD-1 mediated T-cell inhibition; 29,000 tested, under 10 active; activation, % (concentration not given with the values); primary human CD4 T cells, PD-L1 beads, CellTiter-Glo 96 h;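 active = replicate mean of 50% or more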;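 note: 0% = median vehicle wells and 100% = positive control; 100 nL library stock added to about 50 µL; numbers are from one replicate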
MITF inhib = blocks MITF activity. TRPM1 promoter luciferase, luminescence, 24 h. hit rate 0.28% among 37,000. inhibition, % (no concentration beside the values). AID 2240;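 active = most replicates at 85% or more, or half of them and the mean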;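 note: human melanocyte line stably carrying TRPM1 promoter luciferase reporter; 0% = vehicle wells and 100% = a positive control; the first replicate is given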
YB-1 expr inh = YB-1 expression inhibition; AID 434959; hit rate 0.37% among 30,000; delta delta Cp (YB-1 minus CDIP) (concentration not given with the values); U2OS, qRT-PCR YB-1 vs CDIP delta delta Cp, 16 h; stronger effect = higher value; zero = DMSO, each unit about twofold;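 active = delta delta Cp rounded down to an integer at or above 3, about 3 SD of DMSO wells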;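 note: higher means less YB-1 transcript or more CDIP transcript relative to DMSO; stock transfer was 100 nL into about 100 µL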
Active calls of the source: *; nt = no result given.

SMILES	Shh pathway inh	PD-1 reverse act	MITF inhib	YB-1 expr inh
C[C@@H]1CN([C@@H](C)CO)C(=O)c2cccc(NC(=O)Nc3ccccc3)c2O[C@@H]1CN(C)Cc1ccc(C(=O)O)cc1	19	-0.7	-9	0.18
CN(C)c1ccc(/C=C2\C(=O)Nc3ccccc32)c2ccccc12	7	3.5	29	0.64
COc1cc(NC(=O)C2CCCO2)c(C(=O)O)cc1OC (stereo not given)	nt	0.5	-1	nt
Cc1noc(C)c1S(=O)(=O)Nc1ccc2c(c1)CC(=O)N([C@H](C)CO)C[C@H](C)[C@H](CN(C)S(=O)(=O)c1ccc(F)cc1)O2	nt	nt	-11	-0.27
Cc1noc(C)c1S(=O)(=O)N(C)C[C@@H]1Oc2ccc(NC(=O)Nc3cccc4ccccc34)cc2CC(=O)N([C@@H](C)CO)C[C@@H]1C	-12	-1.1	17	0.075
Cc1ccc(-n2ncc(C(=O)NCCN3CCOCC3)c2NC(=O)c2ccco2)cc1C	nt	1.3	-5	nt
COC(=O)c1cc(NC(=O)COc2ccc(Cl)cc2C)cc(C(=O)OC)c1	nt	-0.3	3	nt
CN(C)c1nc2ccccc2c(=O)s1	-29	0.9	-79	-0.087
CC1CCN(CC(O)COc2c(F)cc(Br)cc2F)CC1 (stereo not given)	16	-0.4	0	-0.069
Cc1ccc2cccc(OCc3nnc(SCC(=O)O)n3C)c2n1	nt	2.7	-16	nt
Cc1noc(C)c1NC(=O)N(C)C[C@@H]1Oc2ccc(NC(=O)C3CC3)cc2CC(=O)N([C@H](C)CO)C[C@H]1C	nt	nt	-8	0.14
Cc1noc(C)c1S(=O)(=O)Nc1ccc2c(c1)C(=O)N([C@@H](C)CO)C[C@H](C)[C@@H](CN(C)C(=O)Nc1ccc3c(c1)OCO3)O2	-17	1.1	3	0.09
CC(C(=O)Nc1cccc2ccccc12)N(c1ccc(Cl)cc1)S(C)(=O)=O (stereo not given)	nt	-3.1	-10	nt
C[C@H]1CN([C@@H](C)CO)C(=O)c2cc(NC(=O)CCC(F)(F)F)ccc2O[C@@H]1CN(C)Cc1ccc(Oc2ccccc2)cc1	nt	-0.4	-1	-0.38
CCN(CC)CCNC(=O)COc1ccc(OC)cc1	34	nt	11	-0.064
O=C1NC(=O)C(=Cc2ccc(-c3ccccc3)o2)C(=O)N1	-5	-1.2	2	-0.41
Cn1c(SCC(N)=O)nnc1-c1ccc(C(C)(C)C)cc1	nt	-1.7	-35	nt
CCn1c(SCC(=O)N2CCN(c3ccccc3)CC2)nnc1-c1cc2cc(Cl)ccc2o1	nt	0.7	31	nt
C[C@H](CO)N1C[C@H](C)[C@H](CN(C)Cc2ccc(C(F)(F)F)cc2)Oc2ccc(NS(=O)(=O)c3cn(C)cn3)cc2C1=O	-8	-0.1	-13	0.45
C[C@@H]1CCCCO[C@@H](CN(C)S(=O)(=O)c2ccccc2)[C@@H](C)CN([C@H](C)CO)C(=O)c2cc(NS(=O)(=O)c3ccc(Cl)cc3)ccc2O1	24	-7.9	40	-0.026
CC(C)NC(=O)N(C)C[C@@H]1Oc2ccc(NC(=O)Nc3cccc4ccccc34)cc2C(=O)N([C@H](C)CO)C[C@H]1C	nt	-0.7	3	0.18
Cn1c(SCC(=O)Nc2ccccc2C(F)(F)F)nnc1-c1cccc(N)c1	nt	1.9	-2	nt
O=C1C(=O)N(CCN2CCOCC2)C(c2ccc(Cl)cc2)C1C(=O)c1ccco1 (stereo not given)	nt	0.5	6	nt
NC(=O)CN(Cc1ccc(F)cc1)S(=O)(=O)c1ccc(Cl)cc1	nt	1.7	10	nt
Cc1noc(C)c1S(=O)(=O)N(C)C[C@H]1Oc2ccc(NC(=O)NC(C)C)cc2CC(=O)N([C@H](C)CO)C[C@H]1C	-10	nt	-6	-0.041
C[C@@H]1CN([C@H](C)CO)C(=O)Cc2cc(NS(=O)(=O)c3cccs3)ccc2O[C@@H]1CN(C)Cc1ccc(Cl)c(Cl)c1	23	-1.1	2	-0.087
C[C@@H]1CN([C@@H](C)CO)C(=O)c2cccc(NS(=O)(=O)c3cn(C)cn3)c2O[C@H]1CN(C)S(=O)(=O)c1ccc(Cl)cc1	-32	2.2	1	0.0033
Cc1ccc(S(=O)(=O)N(C)C[C@H]2Oc3c(NC(=O)c4nc5ccccc5s4)cccc3C(=O)N([C@H](C)CO)C[C@H]2C)cc1	-12	2.5	3	-0.45
C[C@H]1CN([C@@H](C)CO)C(=O)Cc2cc(NC(=O)Nc3ccc(F)cc3)ccc2O[C@H]1CN(C)CC1CCCCC1	-18	-1.1	-22	0.00081
COc1ccc(CN(C)C[C@H]2Oc3c(NC(=O)C4CCCCC4)cccc3C(=O)N([C@@H](C)CO)C[C@@H]2C)cc1	33	nt	-11	0.2
COc1ccc(Cl)cc1NC(=O)CN(c1cc([N+](=O)[O-])ccc1C)S(C)(=O)=O	nt	1.5	-2	nt
CCC(=O)OCC(=O)C1(OC(=O)CC)[C@H](C)C[C@H]2[C@H]3[C@H]([C@@H](O)C[C@@]21C)[C@@]1(C)C=CC(=O)C=C1C[C@H]3Cl (stereo not given in full)	40	nt	-38	0.13
Cc1cc(C(=O)Nc2cccc3c2O[C@@H](CN(C)S(=O)(=O)c2ccc(Cl)cc2)[C@@H](C)CN([C@@H](C)CO)C3=O)n(C)n1	14	1.5	-8	0.2
C[C@@H]1CN([C@H](C)CO)C(=O)Cc2cc(NC(=O)Nc3ccc(F)cc3)ccc2O[C@H]1CN(C)Cc1ccc(Cl)c(Cl)c1	-3	-0.2	20	-0.05
COc1ccccc1N1CCN(CCCCN2C(=O)c3ccccc3C2=O)CC1	-29	nt	3	0.058
C[C@H](CO)N1C[C@H](C)[C@H](CN(C)Cc2ccncc2)Oc2ccc(NS(=O)(=O)c3ccccc3)cc2C1=O	-3	-1.1	8	0.2

Given field by field: entries from further up.
> COc1ccc(Cl)cc1NC(=O)CN(c1cc([N+](=O)[O-])ccc1C)S(C)(=O)=O
  Shh pathway inh = nt; PD-1 reverse act = 1.5; MITF inhib = -2; YB-1 expr inh = nt
> C[C@H]1CN([C@@H](C)CO)C(=O)Cc2cc(NC(=O)Nc3ccc(F)cc3)ccc2O[C@H]1CN(C)CC1CCCCC1
  Shh pathway inh = -18; PD-1 reverse act = -1.1; MITF inhib = -22; YB-1 expr inh = 0.00081
> C[C@@H]1CN([C@H](C)CO)C(=O)Cc2cc(NS(=O)(=O)c3cccs3)ccc2O[C@@H]1CN(C)Cc1ccc(Cl)c(Cl)c1
  Shh pathway inh = 23; PD-1 reverse act = -1.1; MITF inhib = 2; YB-1 expr inh = -0.087

(listing goes on)
SMILES	Shh pathway inh	PD-1 reverse act	MITF inhib	YB-1 expr inh
Cc1noc(C)c1S(=O)(=O)N(C)C[C@H]1Oc2ccc(N(C)C)cc2CC(=O)N([C@@H](C)CO)C[C@@H]1C	nt	0.0	-3	-0.21
COc1ccc(OCC(=O)Nc2c(C(=O)c3ccc(C)c(F)c3)oc3ccccc23)cc1	nt	0.0	30	nt
CCn1c(SCC(=O)Nc2cccc(OC)c2)nnc1-c1ccncc1	nt	0.8	-6	nt
Cc1ccc(-c2nc3cc(Cl)cc(Cl)c3o2)cc1NC(=O)COc1ccc([N+](=O)[O-])cc1	nt	0.2	17	nt
COc1ccc(-c2nc(SCC(=O)Nc3cccc(C(F)(F)F)c3)n[nH]2)cc1	nt	-2.2	20	nt
CCc1cc2c3c(c(=O)oc2cc1OCc1cc(C(=O)O)oc1C)CCCC3	nt	-0.2	16	nt
COc1ccc(S(=O)(=O)Nc2ccc(O)c(Sc3ncn[nH]3)c2)cc1	nt	-6.0	-8	nt
Cc1ccc(S(=O)(=O)N(C)C[C@H]2Oc3ccc(N(C)C)cc3C(=O)N([C@H](C)CO)C[C@@H]2C)cc1	0	0.0	9	-0.13
COC(=O)c1cc2c(C)nn(-c3ccccc3)c2s1	-9	0.3	-1	-0.46
CCOC(=O)c1c(NC(=O)COc2ccccc2F)sc2c1CCCC2	nt	-2.4	-25	nt
OCc1nc2ccccc2n1CCOc1ccc(Cl)cc1	nt	-3.9	-12	nt
CNC[C@@H]1Oc2c(NC(=O)Nc3ccccc3)cccc2C(=O)N([C@H](C)CO)C[C@@H]1C	-13	1.8	2	-0.11
Cc1noc(C)c1NC(=O)N(C)C[C@@H]1OCCCC[C@@H](C)Oc2ccc(NS(=O)(=O)c3cccs3)cc2C(=O)N([C@H](C)CO)C[C@@H]1C	-34	0.4	-18	0.28
COc1ccc(S(=O)(=O)N(C)C[C@H]2Oc3ccc(NC(=O)CCC(F)(F)F)cc3CC(=O)N([C@@H](C)CO)C[C@H]2C)cc1	-19	-1.2	3	0.15
COc1ccc(S(=O)(=O)Nc2cccc3c2O[C@H](CN(C)Cc2ccc4c(c2)OCO4)[C@@H](C)CN([C@H](C)CO)C3=O)cc1	-10	nt	3	-0.29
CC(C)NC(=O)Nc1ccc2c(c1)CC(=O)N([C@@H](C)CO)C[C@H](C)[C@H](CN(C)C(=O)Nc1ccc(F)cc1)O2	-38	0.2	-2	-0.68
C[C@H](CO)N1C[C@H](C)[C@H](CN(C)C)Oc2c(NS(=O)(=O)c3cccs3)cccc2C1=O	-132	nt	-7	-0.7
C[C@@H]1CN([C@H](C)CO)C(=O)c2cc(NS(=O)(=O)c3cccs3)ccc2O[C@@H]1CN(C)CC1CC1	-24	nt	-2	-0.12
CC(=O)Nc1ccccc1SCC(=O)Nc1ccc(C)cc1	nt	-6.0	3	nt
CC(C)NC(=O)N(C)C[C@H]1Oc2ccc(NS(=O)(=O)c3ccc(F)cc3)cc2C(=O)N([C@@H](C)CO)C[C@H]1C	nt	-0.7	4	0.11
O=C(c1cc([N+](=O)[O-])ccc1NCc1cccnc1)N1CCOCC1	nt	0.7	-3	nt
Cc1noc(C)c1S(=O)(=O)N(C)C[C@H]1Oc2c(cccc2N(C)C)C(=O)N([C@H](C)CO)C[C@@H]1C	28	nt	7	0.97
C[C@@H]1CN([C@@H](C)CO)C(=O)Cc2cc(NC(=O)Nc3ccc(F)cc3)ccc2O[C@@H]1CN(C)C	-29	nt	-2	0.11
COc1ccccc1Nc1nc(N)nc(CSc2nc3ccccc3s2)n1	nt	-0.2	-13	nt
CC1(C)CCc2cc(-c3ccn(S(=O)(=O)c4cccc(C(F)(F)F)c4)n3)ccc2O1	9	1.2	-26	0.014
C[C@@H]1CN([C@H](C)CO)C(=O)c2cccc(NS(=O)(=O)c3cn(C)cn3)c2O[C@H]1CN(C)C(=O)NC1CCCCC1	8	nt	-9	-0.15
C=CCN1C(=O)/C(=C2\SC(=Nc3ccccc3)N(c3ccccc3)C2=O)c2ccccc21	32	-0.7	9	-0.12
O=C(NCCNC(=O)c1cc2ccccc2cc1O)c1cc2ccccc2cc1O	nt	2.0	3	nt
C[C@H](CO)N1C[C@H](C)[C@H](CN(C)Cc2ccncc2)Oc2ccc(NS(C)(=O)=O)cc2C1=O	nt	2.5	-10	-0.39
CC(=O)c1c(C)nn(CC(O)COc2ccc3cc(Br)ccc3c2)c1C (stereo not given)	nt	-7.0	51	nt
COc1ccc(CN(C)C[C@H]2Oc3c(NC(=O)Nc4c(C)noc4C)cccc3C(=O)N([C@@H](C)CO)C[C@@H]2C)cc1	14	nt	4	1.2
C[C@@H]1CCCCO[C@@H](CN(C)C(=O)Nc2ccc3c(c2)OCO3)[C@@H](C)CN([C@H](C)CO)C(=O)c2cc(NC(=O)NC3CCCCC3)ccc2O1	-10	-0.3	-1	-0.86
C[C@H]1CN([C@@H](C)CO)C(=O)Cc2cc(NC(=O)NC3CCCCC3)ccc2O[C@H]1CN(C)Cc1ccc(C(=O)O)cc1	-31	1.1	-18	-0.42
C/C(=C\C=C\C(C)C)CC/C=C(\C)CCOc1c(O)cc2c(c1O)CNC2=O	-5	0.5	9	0.48
COc1ccc(NC(=O)Nc2cccc3c2O[C@H](CN(C)C(=O)Nc2c(C)noc2C)[C@H](C)CN([C@@H](C)CO)C3=O)cc1	-14	0.6	-7	-0.21
Cc1noc(C)c1NC(=O)Nc1cccc2c1O[C@H](CN(C)Cc1ccc3c(c1)OCO3)[C@@H](C)CN([C@@H](C)CO)C2=O	-8	0.7	-9	0.23

Overlap with the part before: two compounds, followed by the next part.
SMILES	Shh pathway inh	PD-1 reverse act	MITF inhib	YB-1 expr inh
COc1ccc(NC(=O)Nc2cccc3c2O[C@H](CN(C)C(=O)Nc2c(C)noc2C)[C@H](C)CN([C@@H](C)CO)C3=O)cc1	-14	0.6	-7	-0.21
Cc1noc(C)c1NC(=O)Nc1cccc2c1O[C@H](CN(C)Cc1ccc3c(c1)OCO3)[C@@H](C)CN([C@@H](C)CO)C2=O	-8	0.7	-9	0.23
COc1ccc(NC(=O)CNS(=O)(=O)c2c(C)cc(C)cc2C)c(OC)c1	nt	3.8	1	nt
O=C(CCN1CCC(c2cccs2)=N1)c1cccs1	-62	-0.6	-48	-0.22
C[C@@H]1CN([C@H](C)CO)C(=O)c2cccc(NC(=O)Nc3ccccc3)c2O[C@@H]1CN(C)S(=O)(=O)c1cccs1	37	-1.5	-9	-0.22
C[C@H]1CN([C@@H](C)CO)C(=O)Cc2cc(NC(=O)Cc3cn(C)c4ccccc34)ccc2O[C@H]1CN(C)Cc1ccc(C(F)(F)F)cc1	7	nt	28	-0.14
C[C@H](CO)N1C[C@H](C)[C@H](CN(C)Cc2ccc(-c3ccccc3)cc2)Oc2ccc(NS(=O)(=O)c3ccccc3)cc2CC1=O	-54	0.3	17	-0.53

Source: PubChem BioAssay (Broad Institute)

The list is partial, so the mix of outcomes need not match the whole.
